Source: PubChem
NPR1 antag: antagonists of human natriuretic peptide receptor Npr1. 76,000 tested, 1.6% active. AID 1347048. Potency, µM (series often up to 46.3 µM), inactives show at the top dose activity change, negative = inhibition, usual class: inhibitors. P16066. HEK293 hNpr1 GloSensor cGMP, ANP-stimulated luminescence; active = well fitted inhibition curve with a large enough effect; inconclusive = small, poorly fitted or top-dose-only effect; inactive = no such curve, though single readings can be large or run the other way;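 also: nearly all actives have a fitted effect of over 60% in size; nearly all hits also lower the signal before the agonist is added; a reference antagonist and vehicle were the controls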
Target sequence (P16066 whole entry, looked up): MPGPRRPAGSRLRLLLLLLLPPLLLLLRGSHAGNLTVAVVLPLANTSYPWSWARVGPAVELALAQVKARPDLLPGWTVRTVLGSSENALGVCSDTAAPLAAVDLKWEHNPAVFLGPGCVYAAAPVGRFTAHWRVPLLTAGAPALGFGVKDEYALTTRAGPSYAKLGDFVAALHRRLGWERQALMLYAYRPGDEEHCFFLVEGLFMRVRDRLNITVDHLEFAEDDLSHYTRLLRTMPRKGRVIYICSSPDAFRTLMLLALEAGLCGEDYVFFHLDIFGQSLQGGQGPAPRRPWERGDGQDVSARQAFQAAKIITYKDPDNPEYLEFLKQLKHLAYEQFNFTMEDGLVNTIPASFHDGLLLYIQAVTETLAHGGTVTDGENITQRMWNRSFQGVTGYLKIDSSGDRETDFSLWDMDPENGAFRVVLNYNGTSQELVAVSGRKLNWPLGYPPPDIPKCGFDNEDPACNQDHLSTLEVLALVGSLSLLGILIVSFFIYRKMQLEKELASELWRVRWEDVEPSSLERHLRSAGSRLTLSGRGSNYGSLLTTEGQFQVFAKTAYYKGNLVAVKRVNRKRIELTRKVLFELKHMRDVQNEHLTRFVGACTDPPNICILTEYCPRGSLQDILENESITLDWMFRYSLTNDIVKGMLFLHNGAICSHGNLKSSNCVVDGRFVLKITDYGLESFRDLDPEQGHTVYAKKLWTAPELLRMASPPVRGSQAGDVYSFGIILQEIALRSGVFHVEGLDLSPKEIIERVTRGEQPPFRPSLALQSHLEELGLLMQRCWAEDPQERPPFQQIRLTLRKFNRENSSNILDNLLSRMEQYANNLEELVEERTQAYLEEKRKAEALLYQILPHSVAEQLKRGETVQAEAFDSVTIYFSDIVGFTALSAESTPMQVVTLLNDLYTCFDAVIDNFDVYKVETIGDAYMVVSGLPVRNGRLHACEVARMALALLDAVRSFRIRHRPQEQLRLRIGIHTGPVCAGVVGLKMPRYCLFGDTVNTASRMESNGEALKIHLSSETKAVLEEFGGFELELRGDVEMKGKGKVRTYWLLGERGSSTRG
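Compound pre-incubated 30 min at room temperature on GloSensor-loaded HEK293 cells stably carrying hNpr1 and the pGS-40F cGMP biosensor. Stimulation uses hNppA at 0.1 nM final; luminescence is taken at baseline and 20 min post-agonist.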
Numbers without * were called inactive; ? = inconclusive; [ ] = dose if it differs, or a comment. % is scaled to controls: 0 for no effect and ±100 for the full control effect; potency is read from the fitted curve at half-maximal effect.

SMILES	NPR1 antag
NC(=O)C1CCN(CC[C@H]2CN(C(=O)c3ccc(C(F)(F)F)cc3)CC[C@H]2CC(=O)O)CC1	4.8%
CCC(=O)N1CCc2c(C(=O)NCc3cc(C)ccc3C)cccc21	2.7%
O[C@@H]1C[C@@H](c2nc(Cc3ccc(F)cc3Cl)no2)N(Cc2ccco2)C1	8.0%[70.6 µM]
CN(C)C[C@@H]1CN(S(C)(=O)=O)C[C@H]1NC(=O)c1c[nH]c2ccccc12	2.1%
O=C(C[C@H]1NC(=O)c2ccccc2NC1=O)Nc1nc(-c2cccnc2)cs1	-1.2%
COc1ccc(C(C)NC(=O)c2cc3c(N4CCCC4)nc(C)cn3n2)cc1OC (configuration not stated)	5.3%
COc1ccc(S(=O)(=O)N2CCOC[C@H](Oc3cccc(C)n3)C2)cc1	-3.9%[70.6 µM]
Cc1cccc(OCCc2noc(C3CCCCN3S(=O)(=O)c3cn(C)cn3)n2)c1 (configuration not stated)	-5.4%
O=C(c1ccoc1)N1CCCN(C(=O)C2COc3ccccc3C2)CC1 (configuration not stated)	-0.8%
COc1ccc(-c2noc([C@@H]3CCCN3C(=O)c3ccc(C(C)(C)C)cc3)n2)cc1OC	1.3%
Cc1nc(-c2c3n(c(=O)n(CC(=O)Nc4ccccc4Cl)c2=O)CCCC3)no1	3.9%
O=C(c1cccs1)N1CCN(c2cc(-c3cccs3)[nH]n2)CC1	-3.5%
c1ccc(-c2noc(-c3cncnc3NCc3ccc4c(c3)OCO4)n2)cc1	-18.4%
COCCNC(=O)[C@@H]1C[C@H](Oc2cccnc2)CN1C(=O)Cc1cccc(F)c1	8.6%
COc1ccc(N2Cc3c(NCCc4ccc(F)cc4)ncnc3N(C)CC2=O)cc1	5.6%
COc1ccccc1CC(=O)N1CC[C@@H](NC(=O)c2cnccn2)[C@H](O)C1	3.1%
NC(=O)C1(N2CCCCC2)CCN(c2nccc(-c3ccncc3)n2)CC1	0.1%
Cc1ccc(C(=O)Nc2cccc(-c3ccc(N4CCN(C)CC4)nn3)c2)cc1C	-22.4%
O=C1[C@@H]2C[C@@H](CN2Cc2cccnc2)Oc2ccccc2N1CC1CC1	-2.9%[70.6 µM]
CN1C(=O)C(CC(=O)NCc2nnnn2-c2ccccc2)N(C)C1=O (configuration not stated)	0.0%
O=C(NC1CCc2n[nH]c(=O)n2CC1)c1ccsc1 (configuration not stated)	1.7%
Cc1ccccc1N1Cc2c(NCc3cccs3)ncnc2N(C)CC1=O	10.3%
CCOc1ccc(NC(=O)Cn2nc3c(cc2=O)CCCCC3)cc1	-3.7%
Cc1cc(=O)n(CC(=O)N2CCCC(C)(c3ccccc3)C2)nc1C (configuration not stated)	-0.3%
c1coc(CN2CC[C@H](c3nnc(-c4ccncc4)o3)C2)c1	-9.7%[70.6 µM]

Later entries
SMILES	NPR1 antag
CC1(CCCCc2ccccc2)COc2ccc(C(=O)NCCN3CCOCC3)cc2N1 (configuration not stated)	-2.3%[70.6 µM]
CCOc1ccc(NC(=O)Cn2c(N3CCc4ccccc4C3)nc(C)cc2=O)cc1	-12.2%
COCCNC(=O)[C@@H]1CCC[C@@H](NC(=O)c2ccno2)CN(C)C(=O)C1	-0.8%[70.6 µM]
COc1cccc(C(=O)N2C[C@@H](CO)[C@H](c3nc(C4CC4)no3)C2)c1C	7.0%
CNC(=O)N1CCC(C2CCN(C(=O)c3ccco3)C2)CC1 (configuration not stated)	-1.3%
COc1cccc(-c2cc(C3CCN(C(=O)Nc4cc(Cl)ccc4C)CC3)[nH]n2)c1	-22.7%
COC(=O)[C@@H]1Cc2ncn(Cc3ccc(Cl)cc3)c2CN1S(=O)(=O)c1cccs1	-7.5%
CCOc1ccc(C2Cn3nnc(-c4nc(-c5ccc(C(F)(F)F)cc5)no4)c3CO2)cc1 (configuration not stated)	-4.4%
COC[C@@H]1CN(Cc2cn(C)nc2C)C[C@H]1c1ccncc1	-8.2%
N#Cc1cccc(C2CCN(C(=O)C3CCN(C(=O)C4CC4)CC3)CC2)c1	4.1%
c1cncc(COc2cc3c(cn2)NCCN(Cc2ccc4[nH]ccc4c2)C3)c1	8.91µM*
Cn1c([C@H]2CCN(S(=O)(=O)c3ccc(F)cc3)C2)nc2ccccc21	-2.9%[70.6 µM]
Cc1nn(C)c(C)c1CCCN(C)C(=O)C1CCCN(Cc2cccnc2)CCC(=O)NCC1 (configuration not stated)	1.3%
Cn1c([C@H]2CCN(C3CCCCC3)C2)nc2ccccc21	-26.3%[70.6 µM]
COc1cccc(NC(=O)CCC2CCN(C(=O)c3cc4ccccc4cn3)CC2)c1	3.7%
COc1ccccc1C(=O)N1CCCn2nc(C)c(-c3ccccc3-c3ccccc3)c21	-1.0%[70.6 µM]
COc1ccccc1OCCNC(=O)C1Cn2cccc2C(=O)N1Cc1cccnc1 (configuration not stated)	-7.0%
CCc1nn(-c2ccc(OC)cc2)c(Oc2ccccc2F)c1CCC(=O)N1CCSCC1	-10.5%
COc1ccc(C(=O)N2C[C@@H](F)C[C@H]2C(=O)N2CCOCC2)cc1	0.4%
CC1=C[C@@H](CNS(=O)(=O)c2ccccc2)[C@H](C(C)C)C[C@H]1Cc1nnc(-c2ccncc2)o1	?
CCn1nccc1C(=O)N1CCCC(COc2ccccc2C(=O)NC(C)C)C1 (configuration not stated)	2.2%
CC(C)(C)c1ccc(N2C(=O)[C@@H]3C[C@@H](NC(=O)[C@@H](O)c4ccccc4)CCN3C2=O)cc1	-2.5%
Cc1ccc2[nH]c(=O)c(CCC(=O)NCc3ccco3)cc2c1	4.0%
Cc1noc(C)c1CCC(=O)N1CCCCCCNC(=O)CC1	-2.1%
CN(CC1CCOC1)S(=O)(=O)c1ccc(Br)s1 (configuration not stated)	5.1%

Brought forward from above: five compounds, followed by the next part.
SMILES	NPR1 antag
CCn1nccc1C(=O)N1CCCC(COc2ccccc2C(=O)NC(C)C)C1 (configuration not stated)	2.2%
CC(C)(C)c1ccc(N2C(=O)[C@@H]3C[C@@H](NC(=O)[C@@H](O)c4ccccc4)CCN3C2=O)cc1	-2.5%
Cc1ccc2[nH]c(=O)c(CCC(=O)NCc3ccco3)cc2c1	4.0%
Cc1noc(C)c1CCC(=O)N1CCCCCCNC(=O)CC1	-2.1%
CN(CC1CCOC1)S(=O)(=O)c1ccc(Br)s1 (configuration not stated)	5.1%
CC(C)Oc1ccc(CNC(=O)c2noc(-c3ccc(F)cc3)n2)cc1	-9.2%
OCC1CN(c2ncccn2)CC12CCN(Cc1ccco1)CC2 (configuration not stated)	3.0%
Cc1noc2c(N3CCN(Cc4ccccc4)CC3)cc(-c3ccsc3)nc12	-26.6%[70.6 µM]
COc1ccc(-c2noc([C@@H]3CCCN3C(=O)c3cc(C)cc(C)c3)n2)cc1OC	-1.4%
O=C(CCn1ccc(=O)[nH]c1=O)N[C@H](c1cccs1)C1CC(O)C1 (some centres not stated)	-1.8%
Cn1cccc1C(=O)N1CCC2(CC1)CN(Cc1ccccc1)CC2CO (configuration not stated)	-8.2%
COCCC1(NC(=O)c2ccccc2)CCN(Cc2ccc3[nH]ccc3c2)CC1	-1.0%
CCC[C@H]1CN(Cc2nc(C)no2)C[C@@H]1NC(=O)CCS(C)(=O)=O	1.6%
COc1ccccc1OCCNC(=O)C1(C)CCCCC(=O)N1 (configuration not stated)	-0.4%
O=C1NC2(CCN(C(=O)c3ccc4c(c3)OCO4)CC2)COc2ccccc21	16.6%
COc1nccnc1NC1CCN(S(=O)(=O)c2cnc[nH]2)CC1	2.3%
CO[C@H]1[C@H](NC(=O)c2ccc(C)nc2)c2ccccc2C12CCNCC2	3.7%
CS(=O)(=O)N1CCC(C2CCN(Cc3cccs3)C2)CC1 (configuration not stated)	2.9%
CCOC(=O)C[C@@H]1CCN(C(=O)c2ccccc2)C[C@@H]1CCN1CCC[C@H]1C(N)=O	5.3%[70.6 µM]
COc1ccc(S(=O)(=O)N2CCC(n3cnnc3C)CC2)cc1Cl	1.1%
O=C(NCc1ccc(C(F)(F)F)cc1)[C@@H]1Cc2nc[nH]c2CN1Cc1ccccn1	0.6%[70.6 µM]
O=C(NCc1ccccc1)N1CCC(Cc2nc(-c3ccccc3)n[nH]2)C1 (configuration not stated)	-11.1%
CS(=O)(=O)N1CCC(C2CCN(Cc3ccncc3)C2)CC1 (configuration not stated)	7.8%
CCN(CC)C(=O)C(NC(=O)c1ccc(C)cc1)C1CCN(C(=O)c2cccc(OC)c2)CC1 (configuration not stated)	-11.2%
COc1ccccc1CN1Cc2cc(NC(=O)C3CCCC3)ccc2OC(C)C1=O (configuration not stated)	-11.4%
CN(Cc1cc2ccccc2s1)C(=O)c1cc(CN2CCCC(O)C2)on1 (configuration not stated)	6.1%
CCn1nccc1C(=O)Nc1cccc(-c2nnc3n2CCCC3)c1	0.4%
O=C(Cn1cnnn1)NCc1ccc(-c2cnc3c(Oc4ccccc4)nccn23)cc1	-16.7%[70.6 µM]
COc1ccc(Cl)cc1-c1ccc2c(c1)C(=O)N1CC[C@H](NC(=O)c3cccs3)[C@H]1C(=O)N2	?
O=C(CCc1ccc(-c2ccc(Cl)cc2)[nH]1)N[C@@H]1C[C@@H]2OCC[C@@H]21	-18.6%

More structures
SMILES	NPR1 antag
CCn1ccnc1CN(C)Cc1cn(-c2ccccc2C)nc1-c1ccc(OC)c(F)c1	1.3%
Cc1cc(F)ccc1OC1CN(Cc2ccc(F)cc2)C1	0.0%[70.6 µM]
COCCN1C(=O)c2ccccc2C(C(=O)Nc2nc3ccccc3[nH]2)C12CCCC2 (configuration not stated)	4.7%
Cc1ccc(CNC(=O)c2ccc3c(c2)CN(C2CCSCC2)CCO3)cc1	-24.4%
COCCOc1ccnc(-c2noc([C@@H]3CCCN3Cc3ccc4c(c3)OCO4)n2)c1	6.1%[70.6 µM]
Cn1nccc1C(=O)NCCC1CCN(C(=O)Nc2cc(F)ccc2F)CC1	0.6%
Cn1ccc2c(C(=O)NCCc3cnc[nH]3)nc(-c3cccnc3)cc21	0.3%[70.6 µM]
Cc1ccc2nc(CN(C)C(=O)c3ccc(C)c(N4CCNC4=O)c3)[nH]c2c1	0.9%
CO[C@H]1C(=O)N(C(C)C)[C@H]1C1CCN(S(=O)(=O)c2c(C)nn(C)c2C)CC1	2.1%
CN1C(=O)C2(CCN(C(=O)c3cn[nH]c3-n3cnnn3)CC2)c2ccccc21	-0.4%
Cc1ncsc1C1N(C2CCN(C(=O)COc3ccccc3)CC2)C(=O)C12CCCC2 (configuration not stated)	6.5%
COc1ccccc1-c1nc2nccc(-c3ccc(Br)s3)n2n1	-10.1%
Cc1noc(-c2cn(C3CCN(C(=O)c4ccc(F)c(Cl)c4)CC3)nn2)n1	-1.3%
Cc1cc(F)ccc1NC(=O)CN1C(=O)NC2(CCOCC2)C1=O	0.0%
Cc1nn2c(c1-c1ccccc1OCc1ccccc1)N(C(=O)c1cccnc1)CCC2	2.7%[70.6 µM]
Cc1ccc(NC(=O)N2CCC(CCNC(=O)c3cnccn3)CC2)cc1	3.9%
COc1cccc(C(=O)NC2CCN(c3cc(C(F)(F)F)ncn3)CC2)c1	?
C#CCNC(=O)[C@H]1C[C@@H](O)[C@H](O)[C@@H]2N=C(Nc3cccc(C(F)(F)F)c3)S[C@@H]21	1.1%[70.6 µM]
CCn1nccc1C(=O)N1CCN(C(=O)N2CC3CC(C2)[C@H]2CCCC(=O)N2C3)CC1 (some centres not stated)	6.7%
CN(C)c1ccc(C(=O)N2CCCC(COc3ccccc3C(=O)N3CCCC3)C2)cc1 (configuration not stated)	1.2%
CN(CC1CCOCC1)C(=O)Cc1ccc(F)cc1	2.3%
O=C(c1cc(-c2ccc(F)cc2)n[nH]1)N1CCC(OCC2CC2)C1 (configuration not stated)	-1.5%
Cc1noc([C@@H]2CN(Cc3c(F)cccc3F)C[C@H]2CO)n1	-2.0%
COCCn1cc(C(=O)NC2CCCc3c2[nH]c2c(Cl)cccc32)c2ccccc2c1=O (configuration not stated)	-5.4%
CC(C)(Oc1nn(CCOc2ccccc2)c2ccccc12)C(=O)Nc1cccnc1	-21.3%[70.6 µM]

Fetched one by one from the list above, 5 records:
SMILES	NPR1 antag
Cc1cc(F)ccc1NC(=O)CN1C(=O)NC2(CCOCC2)C1=O	0.0%
Cc1ccc2nc(CN(C)C(=O)c3ccc(C)c(N4CCNC4=O)c3)[nH]c2c1	0.9%
Cc1noc([C@@H]2CN(Cc3c(F)cccc3F)C[C@H]2CO)n1	-2.0%
COCCN1C(=O)c2ccccc2C(C(=O)Nc2nc3ccccc3[nH]2)C12CCCC2 (configuration not stated)	4.7%
Cc1ccc(NC(=O)N2CCC(CCNC(=O)c3cnccn3)CC2)cc1	3.9%

(continued)
SMILES	NPR1 antag
N#Cc1cccc(NC(=O)N2CCC3(CCCN(C4CCCC4)C3=O)C2)c1 (configuration not stated)	0.7%
C=C(C)CN(C)C(=O)c1cc(CN2CCC(Cc3ccccc3)CC2)on1	-3.8%
COc1cccc(-c2ncc3c(n2)OCCN(Cc2ccc(F)cc2F)C3=O)c1	?
COc1cccc(C(=O)N2CCCC3(C2)Nc2cccnc2NC3=NCc2ccccc2)c1 (configuration not stated)	-13.6%
CC(C)N[C@@H]1CO[C@H](CNC(=O)c2ccncc2)[C@H]1O	-1.9%[70.6 µM]
Cc1ccc(C)c(CN2C(=O)NC3(CCN(C(=O)c4ccccn4)CC3)C2=O)c1	-0.3%
Nc1nc(C2CC(O)C2)cc(N2CCC(OCc3ccccn3)CC2)n1 (configuration not stated)	1.9%
O=C(Nc1cccc2ccccc12)O[C@@H]1CO[C@H]2[C@@H]1OC[C@@H]2n1nnnc1SC1CCCC1	?
CC(C)(C(=O)NCCc1cccs1)C1CCOCC1	0.0%
O=C(c1ccccc1F)N1CCCC(c2noc(COc3ccccc3)n2)C1 (configuration not stated)	-6.6%
COC[C@@H]1[C@H](NC(=O)c2cn(CCN3CCNCC3)nn2)[C@@H]2CCO[C@H]12	16.7%
CC(C)N1C[C@H](O)C[C@H]1c1nnc2n1CCN(C(=O)C1CC1)CC2	-11.9%

Not all compounds are listed. The share of hits here may be higher or lower than overall.
